# Source: PubChem
# EPAC1 ag val – validation of human EPAC1 agonists; 1% of 16,000 active; Potency, µM, for inactives: max response, positive = active, usual class: activators; EPAC1 Rap1b BODIPY-GDP exchange, fluorescence; active = well fitted activation curve with a large enough effect; inconclusive = small, poorly fitted or top-dose-only effect; inactive = no such curve, though single readings can be large or run the other way;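 note: nearly all actives have a fitted effect of over 70% in size; series mostly up to about 76 or 150 µM; scaled to a cAMP control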
# Target sequence (O95398 whole entry, looked up): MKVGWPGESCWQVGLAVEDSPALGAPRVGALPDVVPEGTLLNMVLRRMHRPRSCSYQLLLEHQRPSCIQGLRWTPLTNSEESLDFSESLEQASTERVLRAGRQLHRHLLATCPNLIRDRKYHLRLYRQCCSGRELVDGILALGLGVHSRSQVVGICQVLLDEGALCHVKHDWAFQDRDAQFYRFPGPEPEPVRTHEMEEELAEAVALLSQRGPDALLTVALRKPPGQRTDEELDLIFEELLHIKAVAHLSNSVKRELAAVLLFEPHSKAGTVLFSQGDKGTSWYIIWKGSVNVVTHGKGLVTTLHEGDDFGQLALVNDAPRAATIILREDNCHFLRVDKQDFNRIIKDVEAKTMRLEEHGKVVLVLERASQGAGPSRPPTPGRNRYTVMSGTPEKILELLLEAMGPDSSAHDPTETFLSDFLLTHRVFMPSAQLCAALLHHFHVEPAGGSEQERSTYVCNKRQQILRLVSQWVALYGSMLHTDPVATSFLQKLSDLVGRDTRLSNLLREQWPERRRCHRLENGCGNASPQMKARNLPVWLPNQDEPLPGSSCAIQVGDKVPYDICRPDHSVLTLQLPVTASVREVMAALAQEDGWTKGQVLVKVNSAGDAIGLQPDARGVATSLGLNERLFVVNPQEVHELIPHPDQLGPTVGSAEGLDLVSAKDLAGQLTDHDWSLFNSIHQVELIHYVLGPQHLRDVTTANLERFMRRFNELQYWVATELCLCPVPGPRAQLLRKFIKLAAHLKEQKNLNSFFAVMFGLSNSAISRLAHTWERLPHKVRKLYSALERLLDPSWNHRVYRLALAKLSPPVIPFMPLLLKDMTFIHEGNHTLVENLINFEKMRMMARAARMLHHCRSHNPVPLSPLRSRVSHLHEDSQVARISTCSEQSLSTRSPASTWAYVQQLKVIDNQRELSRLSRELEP
# An asterisk follows results filed as active; ? = inconclusive; & = joins results of further samples; [ ] = remark or other dose. % is set by controls: 0 for no effect and ±100 for the full control effect; potency is the fitted concentration of half-maximal effect. Some of the compounds tested (hit frequency here may not be typical).
EPAC1 ag val | smiles
27% | C[C@@H](CN(C)C[C@H]1C(=O)O[C@@H]2C[C@@]3(C)CCC[C@]4(CO4)C3CC21)[C@H](O)c1ccccc1 (some centres not stated)
3% | C[C@]12C=CC(=O)C=C1CC[C@@H]1C2=CC[C@]2(C)[C@@H](C(=O)CN3CCN(c4cc(N5CCCC5)nc(N5CCCC5)n4)CC3)CC[C@@H]12
24% | CCOc1ccc(C(=O)c2ccc(O)c(O)c2O)cc1
-22% | COc1cc(C)c2ccccc2n1
5% | Clc1ccccc1CNCC1CCC(CNCc2ccccc2Cl)CC1 (configuration not stated)
-8% | CN1C2CCC1CC(OC(=O)c1c[nH]c3ccccc13)C2 (configuration not stated)
? | NS(=O)(=O)c1cc2c(cc1Cl)NCNS2(=O)=O
4% | Cn1ccnc1
17% | O=C(c1ccncc1)N1CCC2(CCCN(C(c3ccccc3)c3ccccc3)C2)CC1
1% | COc1cc(-c2cc(C)c3c(OC)ccc(OC)c3n2)cc2c1OCCN(C(=O)Cn1nc(C)cc1C)C2
-11% | CN1CCCC(CNC(=O)c2cnn(-c3ncc4c(n3)-c3ccccc3CC4)c2C2CC2)C1 (configuration not stated)
? | CN(Cc1ccco1)c1ncnc2ccc(-c3cccc(NS(C)(=O)=O)c3)cc12
-91%[inhibitor] | Cc1noc(C)c1C(=O)N1CCC2(CC1)CN(Cc1cc(C(F)(F)F)cc(C(F)(F)F)c1)C2
16% | COc1cc2c(cc1OC)Cc1cc(OC)c(OC)cc1Cc1cc(OC)c(OC)cc1C2
0% | O=C(O)c1ccccc1Nc1cc(Cl)ccc1C(=O)O
27% | O=c1c(-c2cccs2)nc2cnc(Oc3ccccc3)nc2n1-c1ccccc1
-10% | O=C(NCC1Cc2cccc(-c3cnccn3)c2O1)c1ccc(F)c(Cl)c1 (configuration not stated)
-7% | COC(=O)c1ccccc1-c1cc(C)cc2c1OC(CNC(=O)c1cnc(C)cn1)C2 (configuration not stated)
? | S=c1[nH]c2ccccc2s1
? | CS(=O)(=O)Nc1cccc(-c2nc(NCCN3CCOCC3)c3ccccc3n2)c1
-7% | CCOc1ccc2nc(N3CCCC3C(=O)N3CCC(c4nc5ccccc5o4)CC3)nc(C)c2c1 (configuration not stated)
14% | N#Cc1ccc(CN2CC3(CCN(C(=O)c4csnn4)CC3)C2)cc1
-17%&17% | N=C(N)c1ccc(OCCCCCOc2ccc(C(=N)N)cc2)cc1
-8% | CC(C)C[C@@H](CN=[N+]=[N-])N1CCN(Cc2ccccc2)CCC1=O
-10% | COc1ccc(-c2nc3cnc(N4CCN(C)CC4)nc3n(Cc3cccc(OC)c3)c2=O)cc1
7% | OCC[N+]1(CCc2ccccc2)CCOCC1
8% | CC1CCC2(OC1)OC1CC3C4CC[C@@H]5CC(O)CC[C@@]5(C)C4CC(=O)[C@]3(C)C1C2C (some centres not stated)
-6% | c1ccc2cnccc2c1
-11% | CCC(=O)N[C@@H]1CCc2cccc(OC)c2C1
24% | C(=C\c1cccs1)/c1ccccn1

# 25 structures already listed, arranged by formula weight, rising.
EPAC1 ag val | smiles
4% | Cn1ccnc1
-6% | c1ccc2cnccc2c1
? | S=c1[nH]c2ccccc2s1
24% | C(=C\c1cccs1)/c1ccccn1
-11% | CCC(=O)N[C@@H]1CCc2cccc(OC)c2C1
7% | OCC[N+]1(CCc2ccccc2)CCOCC1
24% | CCOc1ccc(C(=O)c2ccc(O)c(O)c2O)cc1
-8% | CN1C2CCC1CC(OC(=O)c1c[nH]c3ccccc13)C2 (configuration not stated)
? | NS(=O)(=O)c1cc2c(cc1Cl)NCNS2(=O)=O
-8% | CC(C)C[C@@H](CN=[N+]=[N-])N1CCN(Cc2ccccc2)CCC1=O
-17%&17% | N=C(N)c1ccc(OCCCCCOc2ccc(C(=N)N)cc2)cc1
14% | N#Cc1ccc(CN2CC3(CCN(C(=O)c4csnn4)CC3)C2)cc1
-10% | O=C(NCC1Cc2cccc(-c3cnccn3)c2O1)c1ccc(F)c(Cl)c1 (configuration not stated)
5% | Clc1ccccc1CNCC1CCC(CNCc2ccccc2Cl)CC1 (configuration not stated)
27% | O=c1c(-c2cccs2)nc2cnc(Oc3ccccc3)nc2n1-c1ccccc1
-7% | COC(=O)c1ccccc1-c1cc(C)cc2c1OC(CNC(=O)c1cnc(C)cn1)C2 (configuration not stated)
17% | O=C(c1ccncc1)N1CCC2(CCCN(C(c3ccccc3)c3ccccc3)C2)CC1
? | CS(=O)(=O)Nc1cccc(-c2nc(NCCN3CCOCC3)c3ccccc3n2)c1
8% | CC1CCC2(OC1)OC1CC3C4CC[C@@H]5CC(O)CC[C@@]5(C)C4CC(=O)[C@]3(C)C1C2C (some centres not stated)
-11% | CN1CCCC(CNC(=O)c2cnn(-c3ncc4c(n3)-c3ccccc3CC4)c2C2CC2)C1 (configuration not stated)
-10% | COc1ccc(-c2nc3cnc(N4CCN(C)CC4)nc3n(Cc3cccc(OC)c3)c2=O)cc1
-91%[inhibitor] | Cc1noc(C)c1C(=O)N1CCC2(CC1)CN(Cc1cc(C(F)(F)F)cc(C(F)(F)F)c1)C2
-7% | CCOc1ccc2nc(N3CCCC3C(=O)N3CCC(c4nc5ccccc5o4)CC3)nc(C)c2c1 (configuration not stated)
1% | COc1cc(-c2cc(C)c3c(OC)ccc(OC)c3n2)cc2c1OCCN(C(=O)Cn1nc(C)cc1C)C2
3% | C[C@]12C=CC(=O)C=C1CC[C@@H]1C2=CC[C@]2(C)[C@@H](C(=O)CN3CCN(c4cc(N5CCCC5)nc(N5CCCC5)n4)CC3)CC[C@@H]12

# Next section:
EPAC1 ag val | smiles
10% | COc1cc(=O)n2c(c1C(=O)N(C)Cc1nonc1C)CCN(C(=O)c1cc(C)cc(C)c1)CC2
-22% | COc1ccc(-n2c(=O)c(CCc3ccccc3)nc3cnc(OC)nc32)cc1
5% | O=C(CCN1Cc2ccccc2OC(c2ccccc2F)C1)N1CCC(N2CCCC(O)C2)CC1 (configuration not stated)
-3%&-8%&-11%&-4% | COc1ccc(CCN(C)CCc2ccc(OC)c(OC)c2)cc1OC
-11% | CC[C@@](N)(C(=O)O)c1ccc(C(=O)O)cc1
? | CS(=O)(=O)Nc1cccc(-c2cncnc2NCc2cccs2)c1
17% | COc1ccc(-c2cc(=O)c3c(OC)c(OC)c(OC)c(OC)c3o2)cc1OC
-12% | CCn1nc(C)cc1C(=O)N1CCC2(CC1)c1ccccc1[C@@H](NC(=O)c1cccnc1)[C@@H]2O
? | COc1ncc2nc(-c3ccccc3)c(=O)n(CCC#N)c2n1
17%&-4% | COc1cc(C2c3cc4c(cc3C(O)[C@H]3COC(=O)C23)OCO4)cc(OC)c1OC (some centres not stated)
-3% | COC(=O)N1CCC[C@@]2(CCN(C(=O)Nc3cccc(C#N)c3)C2)C1
-8% | COC(F)(F)C(Cl)Cl
-2%&-1%&-19% | O=S(=O)(c1cccc2c(Cl)cccc12)N1CCCNCC1
-32%[inhibitor] | CN1C[C@@H]2C[C@H]1CN2c1cc2c(cc1F)c(=O)c(C(=O)O)cn2C1CC1
-20% | CC(=O)C1=C(O)C=C2Oc3c(C(C)=O)c(O)c(C)c(O)c3[C@]2(C)C1=O
5%&-31% | CCCC(=O)Nc1ccc(OCC(O)CNC(C)C)c(C(C)=O)c1 (configuration not stated)
5% | CCCN1CCC(=O)N(CCC#N)CC1
-10% | OCCO[C@@H]1[C@@H](O)[C@H](O)[C@@H](CO)O[C@@H]1O
-10% | CO[C@H]1[C@H](NC(=O)c2cccc(F)c2)c2ccccc2C12CCN(Cc1ccco1)CC2
-30%[inhibitor] | CC[C@H]1OC(=O)[C@H](C)[C@@H](O[C@H]2C[C@@](C)(OC)[C@@H](O)[C@H](C)O2)[C@H](C)[C@@H](O[C@@H]2O[C@H](C)C[C@H](N(C)C)[C@H]2O)[C@](C)(O)C[C@@H](C)[C@@H]2N[C@@H](COCCOC)O[C@@H]([C@H]2C)[C@]1(C)O
-5% | COc1ccc(CN2CCN(C(C)=O)CC2)cc1OC1CCN(C(=O)c2ccc3[nH]c(C)c(C)c3c2)CC1
12% | O=P(O)(O)C(O)(Cc1cnc2ccccn12)P(=O)(O)O
-5%&16%&12% | C[C@](N)(Cc1ccc(O)c(O)c1)C(=O)O
-38%[inhibitor] | CN(C)c1ncc2nc(-c3ccc(F)cc3)c(=O)n(CCc3ccccc3)c2n1
-42%[inhibitor] | CC(C)NC(=O)N1CC[C@@]2(CCCN(C(=O)c3cc(C(F)(F)F)cc(C(F)(F)F)c3)C2)C1
-2% | COc1cc(/C=C/CN2CCOc3ccc(C(O)c4cccnc4)cc3C2)ccc1O (configuration not stated)
16% | COc1ccc2c(=O)c(C)c(-c3ccccc3)oc2c1CN(C)C
? | Cc1occc(=O)c1O
100µM* | CC(=O)N1CCC2(CCCN(c3ccc(-c4ccccc4)cc3)C2)CC1
-11% | COCc1c(C(=O)N2CCN(C3CCCCC3)CC2)cnn1-c1ncc(C)c(-c2cccs2)n1
-20% | CCC1OC(=O)C(C)[C@@H](O[C@H]2C[C@@](C)(OC)C(O)C(C)O2)C(C)[C@@H](O[C@@H]2OC(C)CC(N(C)C)C2O)[C@@](C)(O)CC(C)C2NC(COCCOC)O[C@H](C2C)[C@@]1(C)O (some centres not stated)
-1% | Cc1cccc(CNc2ccnc(-c3ccccc3Cl)n2)c1
-14%&3% | Clc1ccc2c(c1)CCc1cccnc1C2=C1CCNCC1
-21% | Cc1nc(-c2ccc(OCC(C)C)c(C#N)c2)sc1C(=O)O
-20% | CC1=C2C(=CO[C@H](C)[C@H]2C)C(=O)C(C(=O)O)=C1O
-7% | CCCn1c(=O)c2[nH]c(-c3ccc(S(=O)(=O)O)cc3)nc2n(CCC)c1=O
4% | COc1cc(OC)c2nc(-c3cc4c(c(OC)c3)OCCN(C(=O)CC3NC(=O)c5ccccc53)C4)cc(C)c2c1 (configuration not stated)
20% | CO[C@@]12[C@H](COC(N)=O)C3=C(C(=O)C(C)=C(N)C3=O)N1C[C@@H]1N[C@@H]12
5% | COc1cccc(C(=O)NCCN2CCN(c3ccc(Cl)cc3)CC2)c1
12% | O=c1c(CCc2ccccc2)nc2cncnc2n1Cc1ccccc1Cl
-6% | Cc1noc(C)c1C(=O)N1CCC2(CCCN(Cc3ccc(C#N)cc3)C2)CC1
-55%[inhibitor] | COCCn1c(=O)c(-c2ccccc2)nc2cnc(N(C)C)nc21
-20% | N#CCCn1c(=O)c(-c2cc(F)cc(F)c2)nc2cnc(Oc3cccc(Cl)c3)nc21
-6% | CC(=O)Nc1ccccc1-c1nc(CNC(=O)c2ccc(F)c(F)c2)c(C)o1
-30%[inhibitor] | O=c1cnc2cnc(Nc3ccccc3)nc2n1C1CC1
? | O=C1CCN(Cc2ccccc2)CCN1[C@H](CO)c1ccccc1
3% | COc1c2c(nc3occc13)C(CC=C(C)C)(OC)C(=O)C=C2 (configuration not stated)
9% | CCCCCC(=O)O[C@H](CC(=O)O)C[N+](C)(C)C
-49%[inhibitor] | COC(=O)N1CCC[C@@]2(CCN(Cc3cc(C(F)(F)F)cc(C(F)(F)F)c3)C2)C1
2% | Clc1ccccc1-c1nc(-c2ccncc2)no1

# Some of these compounds in order of the EPAC1 ag val value, high to low.
molecule,EPAC1 ag val
CCCCCC(=O)O[C@H](CC(=O)O)C[N+](C)(C)C,9%
CC(=O)Nc1ccccc1-c1nc(CNC(=O)c2ccc(F)c(F)c2)c(C)o1,-6%
N#CCCn1c(=O)c(-c2cc(F)cc(F)c2)nc2cnc(Oc3cccc(Cl)c3)nc21,-20%

# Going on with the list.
EPAC1 ag val | smiles
-3% | C/C(=C(\CCOP(=O)(O)O)SC(=O)c1ccccc1)N(C=O)Cc1cnc(C)nc1N
-18% | c1cncc(CNc2ncncc2-c2cccnc2)c1
-2% | COc1cc(-c2noc(C)c2-c2ccc(N(C)C)nc2)cc(OC)c1OC
? | CN(C)c1ccc(C=O)c(Cl)c1
11% | COc1ccc(-n2c(=O)c(-c3ccc(F)cc3)nc3cnc(N4CCNCC4)nc32)cc1
-1% | Nc1ncnc(Nc2ccc(Cl)cc2)n1
-1% | COc1cc(OC)c2c(=O)c(OC)c(-c3ccc(OC)c(OC)c3)oc2c1
0% | Cn1c(=O)c(-c2ccccc2)nc2cnc(OCc3ccccc3)nc21
-4% | COc1cccc(-c2nc3cc4c(cc3cc2CN(C(=O)c2cccs2)C2CC2)CCC4)c1OC
3% | COc1cc(C(O)CO)ccc1OS(=O)(=O)O (configuration not stated)
6% | O=c1cc(-c2ccccc2O)oc2c(O)c(O)ccc12
-8% | O=C(NCC1Cc2cccc(-c3cnccn3)c2O1)C1COc2ccccc2O1 (configuration not stated)
3%&-11% | Oc1ccc(Cl)c2cccnc12
? | CCCCCCCCCCCCCCCC(C)C1=NCCN1 (configuration not stated)
0% | CC(C)C(NS(C)(=O)=O)c1nnc2n1CCN(Cc1ccc(C#CC(C)(C)O)cc1)CC2 (configuration not stated)
? | CCNc1ncc2nc(-c3ccc(Cl)cc3)c(=O)n(Cc3cccc(OC)c3)c2n1
4% | CCOC(=O)C1=CC2(CC)CCCN3CCc4c(n1c1ccccc41)C32 (configuration not stated)
-4% | CC(=O)SC[C@@H](Cc1ccccc1)C(=O)NCC(=O)OCc1ccccc1
-19% | NCC[C@H](O)C(=O)N[C@@H]1C[C@H](N)[C@@H](O[C@H]2O[C@H](CN)CC[C@H]2N)[C@H](O)[C@H]1O[C@H]1O[C@H](CO)[C@@H](O)[C@H](N)[C@H]1O
-13% | O=C(c1cccc(F)c1)N(Cc1cc2cc3c(cc2nc1N1CCOCC1)CCC3)CC1CCCO1 (configuration not stated)
-227%[inhibitor] | CON=C1C[C@]2(C[C@@H]3C[C@@H](C/C=C(\C)C[C@@H](C)/C=C/C=C4\CO[C@@H]5[C@H](O)C(C)=C[C@@H](C(=O)O3)[C@]45O)O2)O[C@H](/C(C)=C/C(C)C)[C@H]1C
-56%[inhibitor] | COCC(=O)N1CCC2(CC1)CCN(c1ncccn1)CC2
-43%[inhibitor] | CNc1nc(-c2cccc(NS(C)(=O)=O)c2)nc2ccccc12
-10% | CNc1ncnc2c1ncn2[C@H]1C[C@H](O)[C@@H](CO)O1
-13% | Cc1noc(C)c1CC(=O)NCC1Cc2cc(-c3cccc(OC(F)(F)F)c3)ccc2O1 (configuration not stated)
-2% | CC(=O)O[C@H](CC(=O)O)C[N+](C)(C)C
